High-throughput results from PubChem BioAssay.
A1 inh: inhibitors of the anti-apoptotic protein A1, read as caspase activation. MEF A1-2A-BIM cells, Caspase-Glo 3/7 luminescence, 3 h; percent of clofoctol response, vehicle zero. caspase activation, % (test concentration not listed). 330,000 tested, 0.066% active;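 active means over half of replicate activation scores above 10%, or exactly half above 10 with the replicate mean above 10; inconclusive means replicate mean below 10 yet half the replicates above 10; inactive means over half of replicates below 10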;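 further: wells of about 30 µL received 50 nL stock; many hits fall short of the cut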
B2AR ag: activates human beta-2 adrenergic receptor causing internalization; P07550; Am2.2-beta2AR cells, FAP receptor internalization, flow cytometry; reference of the scale not given here; response, % (test concentration not listed); 340,000 tested, 0.43% active; AID 504454;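 active means response above a set limit, near 3 SD of response in nonfluorescent compounds, cut at about 42% in these data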;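 further: stock transfer was 100 nL into about 11 µL; a reference agonist was the positive control; negative values mostly stem from fluorescent compounds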
UCH37 inh: blocks the human deubiquitinase UCH37; purified proteasome/UCH37, Ub-AMC cleavage fluorescence; AID 588478; 330,000 tested, 0.33% active; inhibition, % (test concentration not listed); Q9Y5K5;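 active means mean of two replicates above 20%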;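 further: 0% = compound-free wells with enzyme and 100% = wells lacking proteasome; stock transfer was 100 nL into about 20 µL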
Target sequence (Q9Y5K5 whole entry, looked up): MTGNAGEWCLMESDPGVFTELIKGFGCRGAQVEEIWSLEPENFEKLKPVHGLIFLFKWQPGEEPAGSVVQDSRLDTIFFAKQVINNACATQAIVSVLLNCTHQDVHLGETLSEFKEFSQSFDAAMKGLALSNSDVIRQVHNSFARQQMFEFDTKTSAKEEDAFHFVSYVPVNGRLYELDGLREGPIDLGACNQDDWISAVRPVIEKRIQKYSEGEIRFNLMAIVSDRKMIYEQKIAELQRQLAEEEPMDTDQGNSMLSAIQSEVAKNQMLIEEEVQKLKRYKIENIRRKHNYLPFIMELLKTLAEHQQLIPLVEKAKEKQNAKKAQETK
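Signal – fluorescence, ex 355 nm, em 460 nm · System – Proteasome-bound UCH37 · Input – 0.15 nM proteasome as dispensed · Timing – 30 min preincubation with enzyme, 25 min cleavage at room temperature · Read-out basis – percent inhibition of cleavage signal versus uninhibited and no-proteasome wells · Medium – Tris-HCl pH 7.4 with ATP-MgCl2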
LANA-H2B inh: blocks KSHV LANA binding to histone H2A/H2B | AID 2629 | Q9QR71 | cell-free LANA-H2A/H2B peptide, fluorescence polarization | inhibition, % (test concentration not listed) | 320,000 tested, 0.6% active; in the data active means inhibition mostly above about 10%, no sharp cut-off; inactive means mostly below about 6.7%;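 further: stock transfer was 7.5 nL into about 10 µL; 0% = median of vehicle wells and 100% = median of positive control wells; one replicate is shown; the record names a cut of 25% in any replicate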
Vif TR-FRET: inhibitors of Vif binding to APOBEC3G peptide, primary screen, biochemical, TR-FRET, GST-Vif 1-94, biotin-A3G peptide, dose response retest (AID 1117319) | TR-FRET GST-Vif / biotin-A3G peptide binding; higher % means a stronger effect; test concentration not given here; strong numbers were not always called active | inhibition, %, or IC50 in µM where a hit was titrated | 260,000 tested, 0.57% active;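 active means above the screen mean plus three standard deviations and confirmed in dose response; inconclusive means results disagree or hit not tested in dose response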;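 further: Vif residues 1-94 fused to GST binding biotinylated APOBEC3G peptide 110-148; 0% = full assay without inhibitor and 100% = GST in place of GST-Vif; retest series ran down from 100 µM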
E coli growth: blocks Escherichia coli growth; OD600 absorbance (test concentration not listed); AID 1053175; OD600, 23 h; stronger effect = lower value; 330,000 tested, 0.21% active;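 active means OD600 absorbance below the run mean of sample wells minus 3.6 SD, in any replicate, cut at about 0.56 in these data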;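 further: stock transfer was 300 nL into about 60 µL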
HNF4A DNA FP: change in binding of human HNF4 alpha to DNA; activity change, % at 10 µM; 360,000 tested, 0.3% active; P41235; HNF4a-FITC DNA binding, fluorescence polarization, 1 h; AID 1224865; in the data active means activity change above about 30%, passing the limit was not always enough;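 further: controls were the assay level and a saturating level of protein; the project sought stronger binding though the title names inhibitors; some compounds called inactive have numbers as strong as hits; positive values seem to mean higher polarization but the record does not say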
Target sequence (P41235 whole entry, looked up): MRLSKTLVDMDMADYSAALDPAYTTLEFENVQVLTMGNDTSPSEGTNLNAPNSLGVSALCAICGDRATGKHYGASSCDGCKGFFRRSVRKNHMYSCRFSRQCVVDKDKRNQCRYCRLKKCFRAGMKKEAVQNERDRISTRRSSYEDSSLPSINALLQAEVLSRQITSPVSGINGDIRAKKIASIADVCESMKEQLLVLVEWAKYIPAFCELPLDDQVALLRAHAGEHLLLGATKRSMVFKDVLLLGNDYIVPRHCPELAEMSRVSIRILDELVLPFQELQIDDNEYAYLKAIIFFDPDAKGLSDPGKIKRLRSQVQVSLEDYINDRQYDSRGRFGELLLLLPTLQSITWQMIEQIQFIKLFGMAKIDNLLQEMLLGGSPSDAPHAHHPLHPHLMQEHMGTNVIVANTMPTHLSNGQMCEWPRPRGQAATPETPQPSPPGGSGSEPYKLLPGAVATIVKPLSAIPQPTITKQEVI
* = called active by the depositor; ? = inconclusive; . = not tested or not shown; & = joins results of further samples. Rows were taken by chance; 2.1% or so of the library scored in one or more.

SMILES	A1 inh	B2AR ag	UCH37 inh	LANA-H2B inh	Vif TR-FRET	E coli growth	HNF4A DNA FP
CCN1C=C(Cc2ccc(F)cc2)C2=C(C1)C(c1ccc(F)cc1)C(C#N)=C(N)O2 (stereo not drawn)	0.3	-3	1.6	-0.6	7%	0.76	-4.0
CCOC(=O)c1sc(NC(=O)c2cc(-c3ccccc3C)nc3ccccc23)c(C#N)c1C	0.0	23	3.4	-1.4	8%	0.73	-1.6
Cc1cccc(/C(N)=N/OC(=O)N2c3ccccc3Sc3ccccc32)c1	1.9	0	2.5	-1.3	21%	0.69	-1.1
C/C(=C1/SC(N2CC(C)OC(C)C2)=NC1=O)c1ccccc1 (stereo not drawn)	-1.0	-16	5.0	2.0	-7%	0.71	3.1
CCOC(=O)c1c(C)[nH]c(C(=O)COC(=O)/C=C/c2ccc(O)c(OC)c2)c1C	-0.6	6	-1.7	3.5	5%	0.69	-1.5
CC(C)=C1C2CCC1C1C(=O)N(NC(=O)c3ccco3)C(=O)C21 (stereo not drawn)	0.2	-1	1.4	0.3	-3%	0.65	0.7
CCC(=O)Nc1nc2ccccc2n1CCN(C)C	0.1	-1	1.8	-3.0	?	0.69	-0.1
C/C(=N\OC(=O)c1ccc(F)cc1)c1nccs1	-0.4	4	.	-2.6	4%	.	-1.3
CC(c1ccccc1F)n1cc(C(=O)NCCCc2nc3ccccc3[nH]2)nn1 (stereo not drawn)	-0.3	-2	0.7	-3.4	1%	0.69	-0.8
Cc1ccc(C)c(S(=O)(=O)N2CCN(C(=O)[C@H](Cc3ccccc3)NC(=O)c3ccco3)CC2)c1	0.1	-4	1.5	2.6	0%	0.68	1.2

Full records, quoted from the list. Screens in order: A1 inh, B2AR ag, UCH37 inh, LANA-H2B inh, Vif TR-FRET, E coli growth, HNF4A DNA FP
Entry for CCOC(=O)c1c(C)[nH]c(C(=O)COC(=O)/C=C/c2ccc(O)c(OC)c2)c1C : -0.6, 6, -1.7, 3.5, 5%, 0.69, -1.5
Entry for CCOC(=O)c1sc(NC(=O)c2cc(-c3ccccc3C)nc3ccccc23)c(C#N)c1C : 0.0, 23, 3.4, -1.4, 8%, 0.73, -1.6

Structural class, those above containing a halogen
SMILES	A1 inh	B2AR ag	UCH37 inh	LANA-H2B inh	Vif TR-FRET	E coli growth	HNF4A DNA FP
CCN1C=C(Cc2ccc(F)cc2)C2=C(C1)C(c1ccc(F)cc1)C(C#N)=C(N)O2 (stereo not drawn)	0.3	-3	1.6	-0.6	7%	0.76	-4.0
C/C(=N\OC(=O)c1ccc(F)cc1)c1nccs1	-0.4	4	.	-2.6	4%	.	-1.3
CC(c1ccccc1F)n1cc(C(=O)NCCCc2nc3ccccc3[nH]2)nn1 (stereo not drawn)	-0.3	-2	0.7	-3.4	1%	0.69	-0.8

Next section
SMILES	A1 inh	B2AR ag	UCH37 inh	LANA-H2B inh	Vif TR-FRET	E coli growth	HNF4A DNA FP
O=C1c2cccc3cccc(c23)C(=O)N1CCCCCc1n[nH]c(=S)o1	-0.4	3	-17	0.7	-2%	0.62	2.3
COC(=O)c1sccc1NC(=S)N1CCCC(C)C1 (stereo not drawn)	0.2	3	4.7	0.1	-9%	0.73	-1.9
O=C(c1cccc([N+](=O)[O-])c1)c1ccc2c(c1)OCCOCCOCCOCCO2	0.9	8	3.8	13*	10%	0.71	-2.3
CC(C)COc1ccc(C(=O)Nc2ccc([N+](=O)[O-])cc2)cc1	-0.5	8	7.1	-1.2	-3%	0.71	0.2
O=C(CN1CCN(Cc2ccc(Cl)cc2)C1=O)NCCCN1CCN(c2ccc(F)cc2)CC1	0.2	6	-2.2	-3.0	11%	0.69	0.4
CCOC(=O)C1CCCN(Cc2c(Cl)cccc2Cl)C1 (stereo not drawn)	3.0	19	1.5	-2.2	11%	0.62	0.7
CCOc1cc(C(=O)NCC(C)CN(C)C)cc(OCC)c1OCC (stereo not drawn)	-1.5	-11	2.5	2.5	0%	0.7	2.5
O=C(OCc1nnc(-c2ccccc2)o1)c1ccc([N+](=O)[O-])o1	0.2	-2	13	-0.5	-3%	0.66	-4.1
CN(Cc1ccccc1)c1ncc(C=O)s1	0.5	-8	10	-3.9	5%	0.67	1.2
COc1ccc(C(CC(=O)O)NC(=O)c2ccccc2[N+](=O)[O-])cc1 (stereo not drawn)	0.3	12	1.3	0.9	24%	0.75	-0.2
Cc1cc(C(=O)NC2=NCCS2)cs1	-0.5	-1	4.0	0.3	28%	0.64	2.3
C[n+]1cccc(C(=O)Nc2ccccc2)c1	1.1	-3	2.9	5.7	6%	0.66	3.2
Cc1cc(=O)[nH]c(/N=C(\N)Nc2cccc3ccccc23)n1	-1.7	2	.	4.5	30%	.	-3.3
CCC(=O)NCc1ccc2[nH]c(C)cc2c1	-0.3	-4	3.7	0.2	1%	0.71	-4.3
CC1CCCC(NC(=O)NC(=O)CCl)C1C (stereo not drawn)	0.1	7	1.8	-3.2	.	0.7	-1.3
Cn1c(N)c(C(=O)COC(=O)c2cccc(S(=O)(=O)NCc3ccccc3)c2)c(=O)n(C)c1=O	0.0	-7	-2.2	-16	.	0.65	-1.9
NC(=O)CC(NC(=O)c1ccccc1)c1ccc(NC2CCCCCCC2)c([N+](=O)[O-])c1 (stereo not drawn)	1.4	-6	1.5	2.9	.	0.66	4.5
O=C(N/C(=C/c1ccc(Br)cc1)C(=O)N1CCOCC1)c1ccc(Br)o1	-0.8	-12	4.6	0.2	.	0.65	0.1
Clc1ccccc1OCc1nnc(-c2ccccc2Br)o1	-2.8	-9	6.1	5.9	1%	0.71	4.2
Nc1nc2n(n1)C(c1c(F)cccc1Cl)CC(c1ccc(F)cc1)N2 (stereo not drawn)	-0.7	12	3.0	-1.6	77%	0.71	-5.5

Among those listed so far, 7 have four or more nitrogen atoms:
SMILES	A1 inh	B2AR ag	UCH37 inh	LANA-H2B inh	Vif TR-FRET	E coli growth	HNF4A DNA FP
CCC(=O)Nc1nc2ccccc2n1CCN(C)C	0.1	-1	1.8	-3.0	?	0.69	-0.1
CC(c1ccccc1F)n1cc(C(=O)NCCCc2nc3ccccc3[nH]2)nn1 (stereo not drawn)	-0.3	-2	0.7	-3.4	1%	0.69	-0.8
O=C(CN1CCN(Cc2ccc(Cl)cc2)C1=O)NCCCN1CCN(c2ccc(F)cc2)CC1	0.2	6	-2.2	-3.0	11%	0.69	0.4
Cc1cc(=O)[nH]c(/N=C(\N)Nc2cccc3ccccc23)n1	-1.7	2	.	4.5	30%	.	-3.3
Cn1c(N)c(C(=O)COC(=O)c2cccc(S(=O)(=O)NCc3ccccc3)c2)c(=O)n(C)c1=O	0.0	-7	-2.2	-16	.	0.65	-1.9
NC(=O)CC(NC(=O)c1ccccc1)c1ccc(NC2CCCCCCC2)c([N+](=O)[O-])c1 (stereo not drawn)	1.4	-6	1.5	2.9	.	0.66	4.5
Nc1nc2n(n1)C(c1c(F)cccc1Cl)CC(c1ccc(F)cc1)N2 (stereo not drawn)	-0.7	12	3.0	-1.6	77%	0.71	-5.5

The results go on:
SMILES	A1 inh	B2AR ag	UCH37 inh	LANA-H2B inh	Vif TR-FRET	E coli growth	HNF4A DNA FP
CCCNC(=O)CN(Cc1ccco1)S(=O)(=O)c1ccc(OCC)cc1	1.4	-12	0.6	-0.8	1%	0.65	-1.6
Cc1cc(C)c2c3c(sc2n1)C1(CCSCC1)C(C#N)=C(N)O3	0.0	-3	-0.2	1.7	3%&12%	0.65	-0.7
Cc1ccc(S(=O)(=O)N(C)c2ccc(C(=O)N3CCC(C(N)=O)CC3)cc2)cc1	-0.9	-3	0.2	0.8	2%	0.73	3.2
Cc1cc2c(cc1S(=O)(=O)N1CCN(c3cccc(C)c3C)CC1)OCC(=O)N2	0.6	2	7.2	3.4	.	0.77	-0.3
Cc1ccc(NC(=O)N2CCC(NC(=O)C(C)(C)C)CC2)cc1	0.7	-8	1.7	-3.6	-17%	0.69	-2.5
CC(NS(=O)(=O)c1ccc(OCC(=O)NCc2cccnc2)cc1)c1ccccc1 (stereo not drawn)	-0.3	0	3.6	-3.9	.	0.7	7.0
CCc1ccc(C(=O)NNC(=O)Cn2c(=O)cnc3ccccc32)cc1	0.4	-4	-1.2	-1.6	7%	0.69	3.2
Cn1cccc1CC(=O)N/N=C/c1cccc([N+](=O)[O-])c1	-2.4	-7	.	-2.3	1%	.	-68
CC(=O)c1c(C(C)=O)c(C)n(-c2ccc(N)cc2)c1C	-0.2	0	-0.2	4.1	26%	0.68	-3.0
CNC(=O)CSc1nnc(CCc2ccccc2)n1-c1ccccc1	-0.4	-19	-1.7	-11	-2%	0.7	-1.2
COC(=O)c1ccccc1Nc1cc(C)nc2nc(C)nn12	-0.1	9	5.8	3.4	22%	0.72	3.8
CCOC(=O)C1CCCN(C(=O)c2sc3nc(C)nc(N(CC)CC)c3c2C)C1 (stereo not drawn)	0.1	6	4.2	-3.7	1%	0.7	-0.2
COc1ccc(NC(=O)c2ccc3c(=O)n(-c4ccc(OC)cc4OC)c(=S)[nH]c3c2)cc1	-0.5	5	1.8	1.5	10%	0.74	-0.4
COc1cc(C(=O)Nc2ccc3c(c2)N(C(=O)CN2CCN(C)CC2)c2ccccc2CC3)cc(OC)c1OC	0.1	2	4.7	3.9	23%	0.71	4.2
COc1ccc(OC)c(CCNC(=O)Cn2cccc2C(=O)c2ccccc2C)c1	0.8	-4	5.1	-3.6	?	0.7	5.1
COc1cccc(C2=NOC(C(=O)NC(C)(C)C)C2)c1 (stereo not drawn)	1.0	1	1.1	-1.3	12%	0.76	-2.6
CCc1c(C)sc(NC(=S)N2CC(C)OC(C)C2)c1C(=O)OC (stereo not drawn)	0.7	4	0.8	1.8	-9%	0.67	-4.8
Cc1ccc(S(=O)(=O)NCCC(=O)N2CCC(C)CC2)cc1	0.2	-7	2.8	2.6	0%	0.69	-1.3
COc1ccc(CCNC(=O)C2CCCN(c3ncnc4c3nc3n4CCCCC3)C2)c(OC)c1 (stereo not drawn)	0.1	4	0.4	-0.8	.	0.64	0.0
COCCCNC(=S)Nc1ccc(C)cc1[N+](=O)[O-]	-0.2	-6	-2.3	0.1	3%	0.69	3.5
Cc1ccccc1OCC(=O)NC(=S)Nc1ccc(N2CCOCC2)c(Cl)c1	0.5	7	2.2	2.2	8%	0.78	4.2
COc1ccc(-c2nnc(SCC(=O)c3cccs3)n2-c2ccc(Cl)cc2)cc1	1.6	-30	4.7	2.5	4%	0.72	-0.4
COc1ccccc1NC(=O)CN1C(=O)CSC(C)C1=O (stereo not drawn)	0.2	-3	-0.4	0.9	.	0.66	3.4
O=c1cc(Cl)[nH]c(=O)n1Cc1ccccc1	?	1	1.6	-1.8	-2%	0.64	-1.0
CCOC(=O)CSc1nc2sc(C(=O)O)c(C)c2c(=O)[nH]1	-0.4	-10	4.8	-2.4	4%	0.71	0.7
O=[N+]([O-])c1ccc(CSc2ccc(S(=O)(=O)N3CCCC3)cn2)cc1	-0.3	-9	-1.0	-9.5	.	0.64	3.7
CNc1nc(Cl)nc(Nc2ccccc2)n1	-0.9	-2	1.9	4.3	?	0.72	0.5
CCOc1ccc(NC(=O)c2ccc3c(c2)CCN3S(C)(=O)=O)cc1	0.6	10	.	2.5	1%	.	-1.9
O=C(OCC(=O)c1cccs1)c1ccc([N+](=O)[O-])o1	-0.2	11	5.3	1.0	4%	0.61	-2.0
Clc1cccc2sc(N3CCCCC3)nc12	-3.1	-3	6.0	-3.6	1%	0.71	4.6
